# Assay outcomes from PubChem.
# gsp agonist = activates gsp, the McCune-Albright syndrome mutation; gsp mutant cells, cAMP HTRF, 30 min; control for the full effect not named in the record; Potency, µM (top dose mostly 76.9 µM), for inactives: at the top dose activation (cAMP increase), actives largely listed as activators; actives 0.13% (n = 340,000); AID 624287; active = well fitted activation curve with a large enough effect; inconclusive = small, poorly fitted or top-dose-only effect, or another doubt; inactive = no such curve, though single readings can be large or run the other way; cell line not stated here;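 further: phosphodiesterase inhibitor Ro 20-1724 added with compounds to block cAMP breakdown; potency means the concentration at half of the fitted maximal effect; nearly all actives have a fitted effect of over 60% in size; about a fifth of the inactives were tested at one dose only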
#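 Cells in DMEM/10% FBS with G418 were pretreated with compounds in DMSO plus […] (300 uM stock) for 30 min at 37C. cAMP was measured by HTRF (cAMP-d2 plus anti-cAMP antibody-K) after 30 min at room temperature.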
# ClpP mod = qHTS Assay for Activators of ClpP; ATP-dependent Clp protease proteolytic subunit (Bacillus subtilis (strain 168)), P80244; purified B. subtilis ClpP, FRET peptide cleavage, 20 min; Potency, µM (doses to about 57.5 µM), without a hit: at the top dose activity change, negative = active; actives 1.9% (n = 340,000); AID 651965, 2013; active = well fitted falling curve with a large enough effect; inconclusive = small, poorly fitted or top-dose-only effect; inactive = no such curve, though single readings can be large or run the other way; further: potency means the concentration at half of the fitted maximal effect; the source files actives as falling curves though it sought activators and does not explain the sign; nearly all actives have a fitted effect of over 65% in size; many hits overshoot -100%
# Target sequence (P80244 whole entry, looked up): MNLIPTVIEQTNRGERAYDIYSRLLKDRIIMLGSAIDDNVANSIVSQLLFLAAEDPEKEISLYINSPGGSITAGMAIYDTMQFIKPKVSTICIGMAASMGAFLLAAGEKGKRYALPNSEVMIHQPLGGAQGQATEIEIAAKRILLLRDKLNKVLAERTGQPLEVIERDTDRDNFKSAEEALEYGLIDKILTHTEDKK
#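 Buffer: 100 mM Tris/HCl pH8, 100 mM KCl, 0.05% low protease BSA, 2.5% glycerol, 0.01% Tween-20. ClpP 10 microg/mL final; 20 min RT; delta FRET normalized to ADEP and DMSO controls.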
# Sfp PPTase inh = inhibitors of Bacillus subtilis Sfp phosphopantetheinyl transferase; Potency, µM, for the others: max response, negative = inhibition, actives largely listed as inhibitors; Q9F4F7; Biochemical Sfp PPTase activity, qHTS; actives 3.5% (n = 310,000); active means well fitted inhibition curve with a large enough effect; inconclusive means small, poorly fitted or top-dose-only effect, or another doubt; inactive means no such curve, though single readings can be large or run the other way;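 further: the enzyme is Sfp with the accession as filed and its product quenches rhodamine fluorescence; potency means the concentration at half of the fitted maximal effect; 0% = enzyme reaction without inhibitor and -100% = no enzyme wells; top concentration of the series not given in the record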
#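 Buffer: 50 mM Hepes-Na pH 7.6, 10 mM MgCl2, 0.01% Nonidet P-40, 0.01% BSA. Enzyme 15 nM, pre-exposed to compound 15 min; substrates then added and fluorescence change tracked over 30 min.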
# Menin MLL FP FL = inhibitors of human menin-MLL interaction, wild-type MLL peptide; 290,000 tested, under 10 active; Fluorescence polarization, fluorescein-MLL peptide displacement from menin; AID 1766; FP activity change, % at 61.4 µM; inconclusive = falling polarisation curve, or a change in total fluorescence; inactive = total fluorescence flat and polarisation flat or rising; no compound was filed as active; the % refers to the polarisation; negative = inhibition;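 further: % of control where 0% means no effect; inhibitors lower the polarisation; unlabelled MLL peptide was the positive control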
# D2 PAM = potentiates the human D2 dopamine receptor allosterically; DiscoveRx D2 beta-arrestin cells, luminescence, 90 min; 100% = 57 uM dopamine signal; potentiation, % (test concentration not listed); actives 0.23% (n = 360,000); AID 624464; active = potentiation of 50% or more; inconclusive = 30% to 50%; inactive = 30% or less;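 further: compound concentration not given in the record; tested on top of an EC20 dose of dopamine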
#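 PathHunter beta-arrestin assay in DiscoveRx D2 cells. Compounds were added with an EC20 of dopamine (50 nM final) for 90 min at 37 deg C. Luminescence was read 1 h after detection reagent, with 57 uM dopamine as the EC100 control.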
# TRPV1 potentiator = potentiators of human vanilloid receptor 1 (TRPV1) | Q8NER1 | TRPV1-expressing cells, Fluo-8 calcium influx, capsaicin EC20 potentiation; host cell line not named in the record; control for the full effect not named in the record | potentiation, % at 8.33 µM | actives 0.02% (n = 320,000) | AID 540277; active means potentiation above 80%; inconclusive means 30% to 80%; inactive means below 30%; further: 0% is about no effect
# Target sequence (Q8NER1 whole entry, looked up): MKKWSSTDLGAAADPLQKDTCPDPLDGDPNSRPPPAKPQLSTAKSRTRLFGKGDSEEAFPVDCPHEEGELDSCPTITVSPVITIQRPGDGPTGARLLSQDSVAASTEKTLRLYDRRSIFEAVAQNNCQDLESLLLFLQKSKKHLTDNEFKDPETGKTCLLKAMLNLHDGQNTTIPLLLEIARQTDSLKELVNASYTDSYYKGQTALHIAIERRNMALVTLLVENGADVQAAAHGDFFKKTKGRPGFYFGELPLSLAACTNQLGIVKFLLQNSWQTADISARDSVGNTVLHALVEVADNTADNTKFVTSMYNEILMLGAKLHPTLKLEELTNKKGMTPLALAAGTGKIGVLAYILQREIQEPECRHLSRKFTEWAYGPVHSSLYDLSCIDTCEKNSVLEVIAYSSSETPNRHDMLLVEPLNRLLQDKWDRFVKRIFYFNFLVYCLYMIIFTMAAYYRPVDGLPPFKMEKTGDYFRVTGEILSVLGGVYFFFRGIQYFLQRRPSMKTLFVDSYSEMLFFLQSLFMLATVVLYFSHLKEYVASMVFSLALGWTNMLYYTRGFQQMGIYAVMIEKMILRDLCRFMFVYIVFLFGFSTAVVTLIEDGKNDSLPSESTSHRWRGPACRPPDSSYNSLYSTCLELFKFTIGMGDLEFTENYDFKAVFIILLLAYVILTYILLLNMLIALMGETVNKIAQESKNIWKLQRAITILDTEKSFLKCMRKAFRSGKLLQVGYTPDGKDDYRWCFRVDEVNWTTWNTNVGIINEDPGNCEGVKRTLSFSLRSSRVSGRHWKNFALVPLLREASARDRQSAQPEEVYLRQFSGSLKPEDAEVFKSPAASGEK
#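 Fluo-8 calcium influx in TRPV1-expressing cells, kinetic read (ex 480/em 520 nm). Compound added and read 3 min for agonist activity, followed by capsaicin at EC20 final and 2 min further read for enhancement.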
# gsp antag = antagonizes gsp, the McCune-Albright syndrome mutation; gsp-mutant cells, cAMP HTRF, 30 min; control for the full effect not named in the record; Potency, µM (series often up to 76.9 µM), without a hit: top-dose activity change, negative = inhibition, hits mostly inhibitors; actives 0.4% (n = 340,000); active = falling curve of any shape with a large fitted effect; inconclusive = falling curve, mostly with a smaller effect; inactive = flat or rising curve; cell line not stated here;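 further: intracellular cAMP measured with PDE inhibitor Ro 20-1724 present during compound exposure; potency means the concentration at half of the fitted maximal effect; on the % scale 0 is the no-effect control and ±100 the full control effect; nearly all actives have a fitted effect of over 65% in size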
#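 HTRF cAMP read-out (cAMP-d2 plus anti-cAMP antibody-K in lysis buffer, 30 min RT). Before lysis, cells are exposed to compounds with […] for 30 min at 37C in DPBS containing Ca/Mg, BSA and Tween 20.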
# * marks the source's active call; other numbers are inactive results; ? = inconclusive; . = no result given; & = joins results of further samples; [ ] = dose if it differs, or a comment.
SMILES,gsp agonist,ClpP mod,Sfp PPTase inh,Menin MLL FP FL,D2 PAM,TRPV1 potentiator,gsp antag
O=C(O)C1CCCN1C(=O)C1CCN(S(=O)(=O)c2cccc(C(F)(F)F)c2)CC1 (stereo not given),5%[15.4 µM],-1.0%,.,.,6,-15,6%
CCN=c1scc(-c2ccc(F)cc2)n1/N=C/c1ccccn1,1%[15.4 µM],.,?,2.2,-1,6,.
Cc1ccc(S(=O)(=O)CCC(=O)OCC(=O)N(C)C2CCS(=O)(=O)C2)cc1 (stereo not given),-10%[15.4 µM],.,.,.,-4,-7,5%
CC(=O)Nc1ccc(S(=O)(=O)Nc2cc([N+](=O)[O-])ccc2C)cc1,11%[15.4 µM],.,20%,1.8,-6,2,-8%
CCN(CC(=O)Nc1ccc(OC)cc1)C(=O)COc1cccc2c1OC(C)(C)C2,-36%[inhibitor],-3.3%,.,.,-9,15,1%
CCC(C)N(C(=O)CSc1ncnc2c1cnn2-c1ccccc1)C1CCS(=O)(=O)C1 (stereo not given),6%,-3.7%,.,.,6,2,4%
CC(C)Cc1nc(N2CCCCC2)c(C#N)c2c1CCC2,-14%,35µM*,18%,3.4,15,-3,-24%
Cc1c(C(=O)N2CCCC2)oc2ccc(Br)cc12,-32%[inhibitor],0.0%,7%,.,5,-13,-7%
Cc1ccsc1C(=O)NNC(=O)C1CC=CCC1C(=O)O (stereo not given),-10%,0.2%,19%,3.2,1,1,13%
Cc1noc(C)c1S(=O)(=O)Nc1ccc(C(C)C)cc1,5%,-1.3%,10%,-0.7,-10,-7,10%
c1ccc(Nc2nc(-c3ccccc3)nc3ccccc23)cc1,27%,-19%,11%,-1.7,-2,21,-2%
CC(NC(=O)c1ccco1)c1cccc2ccccc12 (stereo not given),-2%,1.5%,21%,2.8,0,-16,2%
CCOc1cc(C(=O)OCc2ccc(OC)cc2)ccc1OCC(=O)N1CCOCC1,?,-1.9%,.,.,-5,-2,-18%
CN(C)CCCN(C(=O)CCc1ccccc1)c1nc2ccc(Cl)cc2s1,-1%[15.4 µM],-0.2%,?,0.8,-15,5,34%[activator]
Cc1cc(C(=O)Nc2ccccc2C)on1,12%,.,6%,-2.4,-4,2,-1%
CCOC(=O)c1cc(-c2ccccc2)n(CC(=O)Nc2cc(OC)cc(OC)c2)c1C,-28%,-0.4%,?,3.2,-8,10,10%
CC(=O)N1CCCc2cc(S(=O)(=O)N3CCCC(C(=O)N4CCN(c5cc(C)ccc5C)CC4)C3)ccc21 (stereo not given),-60%[inhibitor],-0.1%&-0.2%,-9%,-0.7,-6,3,?
CCN(C(=O)CSc1ncccc1C(=O)OC(C)C)c1cccc(C)c1,1%,-2.3%,-15%,1.6,-23,28,-24%
CN1COc2ccc3ccccc3c2C1,-4%,.,11%,3.4,-7,24,8%
CCOC(=O)C1=C(COC(=O)CNS(=O)(=O)c2ccc(NC(C)=O)cc2)NC(=O)NC1C (stereo not given),4%,-3.8%,.,.,1,.,15%
COC(=O)CNC(=O)C(Cc1ccccc1)NS(=O)(=O)c1ccc2c(c1)c(=O)n(C)c(=O)n2C (stereo not given),?,-8.8%&-7.9%,23%,1.9,-3,5,4%
COc1ccc2c(c1)[nH]c1c(N3CCSCC3)ncnc12,-9%[15.4 µM],.,-18%,4.9,13,-15,28µM*
Cc1c(Br)c(C(=O)NNC(=O)c2ccc(C(C)(C)C)cc2)nn1C,-20%,1.7%,10%,?,1,-13,-4%
Cc1cccn2c(=O)c3cc(C(=O)NCCc4ccccc4)sc3nc12,-29%[15.4 µM],.,-22%,-1.9,-1,-9,1%
O=C(c1cc(F)c(F)cc1Cl)N1CCN(S(=O)(=O)c2cccs2)CC1,-8%[15.4 µM],.,.,.,1,27,5%
COc1cccc(NS(=O)(=O)c2cc3[nH]c(=O)c(=O)[nH]c3cc2C)c1,14%,-7.8%,18%,.,1,-2,4%
O=C(COC(=O)c1ccc(Cl)nc1)Nc1cc(S(=O)(=O)N2CCCCC2)ccc1Cl,9%[15.4 µM],60%,19%,5.1,-3,17,0%
CN(C)CCN(C(=O)c1cccc(N2C(=O)CCC2=O)c1)c1nc2ccc(Br)cc2s1,5%,-2.4%,2%,-2.6,-32,0,8%
CC(=O)Nc1ccc(C(=O)OCCC(C)C)cc1,-5%,1.0%,-8%,2.8,4,-13,-7%
Cn1cnnc1SCC(=O)Nc1ccc(Cl)cc1,22%,-0.1%,6%,5.9,1,-7,8%
CCOC(=O)C1=C(C)NC(C)=C(C(=O)OCC)C1C(=O)OCC(N)=O,4%[15.4 µM],-1.5%,25%,-4.3,7,0,8%
O=S(=O)(c1ccc2ncn(O)c2c1)N1CCOCC1,20%,.,-3%,5.1,0,3,-5%
O=C(OCCNc1nc(-c2ccccc2)nc2ccccc12)c1cccnc1,-1%,-3.0%,-12%,-0.7,-11,-7,?
O=C(NCCSc1ccccc1)c1ccccc1,-2%,-1.9%,5%,1.7,-14,-5,3%
Cc1[nH]c2ccccc2c1C(C#N)(C#N)C1C(=O)c2ccccc2C1=O,14%,-21%,?,1.3,-13,11,-6%
CN(C)S(=O)(=O)c1cccc(NC(=O)c2cc(=O)[nH]c(=O)[nH]2)c1,?,-6.8%,?,-14,-2,4,2%
COc1ccccc1OCC(=O)NC1CCCCCC1,6%,-2.0%,11%,0.5,-5,8,-22%
NC(=O)C1CCN(C(=O)CCSc2ccccc2)CC1,-24%,-1.4%,31%[activator],3.6,-5,3,20%
CCN(CC)c1ccc(NC(=O)c2cccc(C)c2OC)c(C)c1,18%,-1.2%,-29%,3.2,-3,-21,-7%
O=C(CSc1nncs1)N1CCN(S(=O)(=O)c2ccccc2)CC1,-7%[15.4 µM],2.2%,12%,-1.7,-8,9,12%
CCSc1cc(C)nc2c(-c3ccc(Cl)cc3)c(C)nn12,-5%,-1.9%,5%,-0.6,8,5,2%
CCOC(=O)C(=O)Nc1ccc(OCc2ccccc2)cc1,-2%[15.4 µM],1.8%,5%,-3.0,-3,-11,7%
CCCc1cc(=O)[nH]c(SCC(=O)Nc2ccc(OC(F)F)cc2)n1,-16%,-2.9%,0%,2.0,-11,-1,-10%
Cc1ccc2c(c1)c1c(n2CC(O)CNC(C)(C)C)CCCC1 (stereo not given),?,?,12%,-5.0,18,.,8%
Cc1ccc(S(=O)(=O)Nc2cccc(CP(=O)(c3ccccc3)c3ccccc3)c2)cc1,14%[15.4 µM],.,12%,2.6,1,.,-16%
COc1ccc(F)cc1S(=O)(=O)Nc1cc2c3c(c1)CC(=O)N3CCC2,0%[15.4 µM],-1.6%,.,.,0,2,-7%
CCOc1ccc(OCCCC(=O)Nc2nc3ccccc3[nH]2)cc1,0%[15.4 µM],.,10%,-2.3,-2,-10,16%
Cc1ccc(C(=O)NCC(=O)OCCOc2cccc(Cl)c2)cc1,1%[15.4 µM],.,.,.,-6,?,5%
COc1ccccc1N1CCN(C(=O)c2ccc(CN3CCc4ccccc4C3)cc2)CC1,?,1.4%,13%,0.8,-12,2,-12%
CCC(=O)Nc1ccc(/C(C)=N/NC(=O)c2c(Br)c(C)nn2C)cc1,-28%,-1.6%,10%,.,-1,3,9%
COc1ccc(N2CCN(C(=O)[C@@H]3CCCN3C3=NS(=O)(=O)c4ccccc43)CC2)cc1,-17%,1.0%,.,.,-2,-7,-5%
O=C(COc1ccccc1[N+](=O)[O-])Nc1ccc(N2CCN(C(=O)c3cccs3)CC2)cc1,1%[15.4 µM],.,0%,-1.7,6,8,28µM*
Cc1c(NS(=O)(=O)c2cc(C(=O)NCc3cccnc3)cc(Cl)c2Cl)c(=O)n(-c2ccccc2)n1C,?,-1.7%,.,.,2,16,4%
O=C(CSCC(=O)NN=Cc1ccccc1O)NN=Cc1ccccc1O,12%,?,.,.,-2,.,8%
CC(C)CCNC(=O)C1CCC(CNc2c(N3CCCC3)c(=O)c2=O)CC1 (stereo not given),-2%[15.4 µM],.,10%,6.2,-6,?,-3%
COc1ccc(OC)c(COC(=O)c2cccc(S(=O)(=O)N3CCCCC3)c2)c1,23%,-28%,.,.,-5,.,9%
Nc1cc(=O)[nH]c(SCC(=O)Nc2cccc(Cl)c2Cl)n1,-33%[inhibitor],0.6%,0%,1.4,-32,?,1%
CN(C(=O)COC(=O)c1cccc(S(=O)(=O)N2CCCCC2)c1)C1CCS(=O)(=O)C1 (stereo not given),-9%[15.4 µM],.,.,.,-66,1,4%
CN1CCN(C(=O)CSc2nc3c(c(=O)n(C)c(=O)n3C)n2C)CC1,?,.,11%,-0.4,-2,?,12%
Cc1nc(NC(=O)c2ccc(Cl)cc2)sc1Cc1ccc2c(c1)OCO2,-60%[inhibitor],.,20µM*,3.4,-2,3,13%

# The results go on:
SMILES,gsp agonist,ClpP mod,Sfp PPTase inh,Menin MLL FP FL,D2 PAM,TRPV1 potentiator,gsp antag
Cc1cccc(NC(=O)c2ccc(S(=O)(=O)N3CCN(C)CC3)cc2)c1C,-2%[15.4 µM],.,22%,2.5,0,1,.
CCCC(=O)Nc1sc2c(c1C#N)CCCC2,10%,-0.2%,13%,-1.8,-9,-11,5%
O=c1c2cc(-c3ccccc3)sc2ncn1-n1cccc1,-33%[inhibitor],-4.2%,4%,3.5,-9,-2,10%
Cc1cccc(OCC(=O)Nc2nc(-c3ccncc3)cs2)c1,18%,-0.1%,.,.,-1,10,0%
CCOC(=O)CC(=O)CSc1nc2c(sc(=S)n2-c2ccc(OCC)cc2)c(=O)[nH]1,-2%[15.4 µM],0.6%,-15%,3.2,1,11,?
Cc1c(CCO)c(=O)n(C)n1C(=O)c1ccc(F)cc1,12%,-2.6%,11%,6.6,-2,-7,-3%
O=C(Cn1c(=O)sc2ccccc21)N1CCOCC1,2%,-0.8%,5%,-1.2,-17,3,1%
O=C1CC(c2ccccc2)Sc2nc(-c3ccccc3)c(-c3ccccc3)n21 (stereo not given),4%,-11%,16%,0.8,-9,-10,3%
CCOc1cc(/C=C/C(=O)c2ccc(O)cc2)ccc1OCC(=O)N(C)C,9%,-2.4%,19%,1.7,11,-4,0%
